Screening results (PubChem)
KCNQ2 pot = potentiators of rat KCNQ2 potassium channel | O88943 | CHO-K1 KCNQ2, FluxOR thallium flux fluorescence; active compounds read high | B-score at 10 µM | actives 0.54% (n = 310,000) | AID 2239;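 active = fluorescence ratio B-score at least 3 SD of library B-scores, with initial fluorescence B-score within 3 SD, cut at about 5.3 in these data; same plate scores as AID 2156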;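 also: B-score of peak minus minimum over baseline fluorescence ratio after K+ and Tl+ stimulus; positive B-score means potentiation of KCNQ2 with more thallium influx and brighter signal; only the inactives scoring about 0 or higher are listed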
Target sequence (O88943 whole entry, looked up): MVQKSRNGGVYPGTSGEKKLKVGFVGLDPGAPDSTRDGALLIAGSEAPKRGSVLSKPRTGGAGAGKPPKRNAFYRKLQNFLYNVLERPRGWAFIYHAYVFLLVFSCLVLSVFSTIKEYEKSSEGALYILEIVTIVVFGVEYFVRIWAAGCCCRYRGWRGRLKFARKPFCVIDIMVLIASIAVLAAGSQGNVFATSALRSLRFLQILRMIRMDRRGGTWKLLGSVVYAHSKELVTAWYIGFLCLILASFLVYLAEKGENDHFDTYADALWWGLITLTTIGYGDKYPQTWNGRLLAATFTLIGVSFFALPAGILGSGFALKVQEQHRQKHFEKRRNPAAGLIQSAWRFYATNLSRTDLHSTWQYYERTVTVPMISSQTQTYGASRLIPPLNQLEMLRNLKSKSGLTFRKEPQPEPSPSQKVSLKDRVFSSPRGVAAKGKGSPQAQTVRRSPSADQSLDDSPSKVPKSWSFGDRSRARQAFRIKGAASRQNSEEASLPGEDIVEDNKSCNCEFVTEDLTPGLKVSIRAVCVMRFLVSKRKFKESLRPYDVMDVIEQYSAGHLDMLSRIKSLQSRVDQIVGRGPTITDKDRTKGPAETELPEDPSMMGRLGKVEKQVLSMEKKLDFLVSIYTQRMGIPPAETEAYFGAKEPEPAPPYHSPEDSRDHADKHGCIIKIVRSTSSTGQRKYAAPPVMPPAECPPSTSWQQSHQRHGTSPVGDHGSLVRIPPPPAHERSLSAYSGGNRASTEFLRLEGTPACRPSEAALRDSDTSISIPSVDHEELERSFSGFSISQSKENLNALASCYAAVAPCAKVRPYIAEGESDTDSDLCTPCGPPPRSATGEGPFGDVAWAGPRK
KCNQ2 pot baseline = recorded beside KCNQ2 pot, whose call it bears; B-score; compound at 10 µM; measured here: initial fluorescence intensity artifact check;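 brightness before thallium and not channel activity; 0 = typical well and far values either way flag optical interference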
The depositor's hits bear a star; nt = no result given.

SMILES	KCNQ2 pot	KCNQ2 pot baseline
CCOc1ccc(OCc2ccc(C(=O)NCc3cccnc3)o2)cc1	0.53	0.02
C=CCNC(=S)N1CCN(Cc2ccc3c(c2)OCO3)CC1	0.21	-3.16
CC(=O)Nc1nc(-c2ccc3ccccc3c2)cs1	1.12	0.42
COc1ccccc1-c1cc(C(=O)NN)[nH]n1	0.54	1.56
O=C(CNC(=O)c1ccccc1F)NCCc1ccc(Cl)cc1	0.43	-0.34
O=C(O)CSc1nnc2c(n1)[nH]c1ccccc12	1.45	-0.53
COc1cc(CCC(=O)Nc2nccs2)cc(OC)c1OC	0.39	1.41
COCCNc1nc(C)cc(-c2cc(C(=O)Nc3ccccc3)on2)n1	0.51	-0.92
Cn1cc(CN(Cc2ccccc2)C[C@@H]2CCC(=O)N2)c(-c2ccccc2F)n1	1.18	1.55
CCC(=O)Nc1ccc(C(=O)Nc2cccc(C)n2)cc1	0.72	2.26
COc1ccccc1C(O)(C(=O)N(NC(C)=O)c1ccccc1)c1ccccc1OC	2.21	1.25
Cc1ccc(C)c(S(=O)(=O)NC(CC(C)C)C(=O)O)c1 (stereo unspecified)	0.97	-0.74
Cc1ccccc1NC(=O)c1[nH]cnc1C(=O)NN	0.67	0.3
Cc1ccc(-c2onc3ccc(C(=O)O)cc23)cc1	0.58	0.26
CC(C)(C)c1ccc(OCc2ccc(C(=O)N3CCOCC3)o2)cc1	1.49	-0.5
S=C(NCCN1CCOCC1)Nc1ccc(Cl)cc1	0.07	-0.08
O=C(O)c1ccc2c(c1)C(=O)N(c1ccc(OCc3ccccc3)cc1)C2=O	1.22	-2.21
Nc1nc2c3ccccc3nc(C3CC3)n2n1	0.79	0.01
CC(C)CN(C(=O)COC(=O)Cc1c[nH]c2ccccc12)c1c(N)n(Cc2ccccc2)c(=O)[nH]c1=O	0.73	-0.95
CCn1c(=O)ccc2cc([N+](=O)[O-])ccc21	0.79	-1.71

Reprinted from the part before: 7 entries, then new ones.
SMILES	KCNQ2 pot	KCNQ2 pot baseline
Cc1ccc(-c2onc3ccc(C(=O)O)cc23)cc1	0.58	0.26
CC(C)(C)c1ccc(OCc2ccc(C(=O)N3CCOCC3)o2)cc1	1.49	-0.5
S=C(NCCN1CCOCC1)Nc1ccc(Cl)cc1	0.07	-0.08
O=C(O)c1ccc2c(c1)C(=O)N(c1ccc(OCc3ccccc3)cc1)C2=O	1.22	-2.21
Nc1nc2c3ccccc3nc(C3CC3)n2n1	0.79	0.01
CC(C)CN(C(=O)COC(=O)Cc1c[nH]c2ccccc12)c1c(N)n(Cc2ccccc2)c(=O)[nH]c1=O	0.73	-0.95
CCn1c(=O)ccc2cc([N+](=O)[O-])ccc21	0.79	-1.71
CC(=O)NC1C(OCc2ccccc2)OC(CO)C(OC(C)=O)C1OC(C)=O (stereo unspecified)	1.69	0.3
COc1cc(C(=S)N2CCOCC2)ccc1O	0.08	0.06
CCc1cccc(C)c1NC(=O)CCOc1ccccc1	3.21	-1.38
S=c1nc(-c2ccc(Cl)cc2)[nH][nH]1	0.18	-0.84
Cc1ccc2cc(NC(=O)c3ccccc3)ccc2n1	0.78	0.27
CCCS(=O)(=O)N1CCN(Cc2ccc(OCc3ccccc3)c(OC)c2)CC1	0.25	1.22
O=C(Nc1ccccc1)N1CCCN(Cc2ccccc2F)C1	0.53	-0.13
Cc1ccc(CNC(=O)COC(=O)c2cncc(Br)c2)cc1	1.59	0.31
CCOc1ccc(/C=C/C(=O)N(CC)CC(=O)Nc2ccc3c(c2)OCCO3)cc1OC	1.29	-1.47
C/C=C(/C)C(=O)Nc1cccc(C2=NOC3(C2)C[C@@H](C(N)=O)N(C(=O)CCCCC)C3)c1 (stereo partly specified)	0.9	-1.64
CCOc1ccc(OCCC(=O)OCC(=O)Nc2ccc(N3CCOCC3)cc2)cc1	0.66	-2.03
COc1ccc2oc(C(=O)OCC(=O)N(C)c3c(N)n(Cc4ccccc4)c(=O)[nH]c3=O)c(C)c2c1	0.23	-1.44
COc1ccccc1N(CC(=O)NC1CCCC1)C(=O)CCC(=O)Nc1cc(C)on1	1.64	-0.47
Cc1cccc(OCC(=O)OC(C)C(=O)Nc2ccc(S(=O)(=O)N3CCCCC3)cc2)c1 (stereo unspecified)	1.89	-1.4
O=C(c1cnn2c1NC(c1ccc(Br)cc1)CC2C(F)(F)F)N1CCN2CCCC2C1 (stereo unspecified)	0.4	-0.04
Cc1cc(NC(=O)C2CC(=O)N(c3ccc(F)cc3)C2)no1 (stereo unspecified)	1.1	1.02
Cc1ccc(S(=O)(=O)NC(=O)c2cccc(Br)c2)cc1	1.36	-1.89
Cc1ccc(NC(=O)CCC(=O)NNC(=O)c2cccc([N+](=O)[O-])c2)cc1C	0.42	0.01
CCCCC(=O)Nc1cc(C)c(NC(=O)c2cccs2)cn1	1.18	0.58
CCCCCCCCCCOC(=O)Cn1c(COc2ccc(OC)cc2)[n+](C)c2ccccc21	1.65	nt
CCOC(=O)N1CCN(C(=O)c2cccc(NC(=O)c3ccco3)c2)CC1	0.23	-0.86
CCOC(=O)C1=C(C)N=c2s/c(=C/c3ccc(OCC(=O)O)cc3)c(=O)n2C1c1cc(OC)c(OC)c(OC)c1 (stereo unspecified)	0.15	-1.88
O=C(Nc1nn(Cc2ccccc2F)cc1Br)c1cccs1	2.23	2.01
CCN(C(=O)COC(=O)/C=C/c1cnc2ccccc2n1)C1CCS(=O)(=O)C1 (stereo unspecified)	1.16	-1.69
COc1cc(/C=N/NC(=O)c2ccoc2C)cc(OC)c1O	1.37	0.02
O=C(NCCCC1CCCC1)C1CCC(=O)N(Cc2ccc(Cl)cc2)C1 (stereo unspecified)	0.18	1.43
COc1ccc(NC(=O)C2CCN(S(=O)(=O)c3ccc(OC)c(OC)c3)CC2)cc1	1.95	-2.55
CN(Cc1ccco1)S(=O)(=O)c1nnc(NC(=O)c2ccccc2)s1	1.08	-0.58
NC1=NC(=Nc2ccc(Br)cc2)c2ccccc21	1.84	-0.2
O=C(NCc1ccncc1)C12CC3CC(CC(C3)C1)C2	0.98	0.3
CC(C)OC(=O)CSc1nc(N)c(C#N)cc1C#N	1.25	0.28
Cc1cc(C)n(C(=O)CCNC(=O)c2ccccc2Cl)n1	0.54	0
CC1(COS(N)(=O)=O)CCCCC1	1.73	-1.65
CCOC(=O)c1sc2nc(C)nc(SCC(=O)N(C)C3CCS(=O)(=O)C3)c2c1C (stereo unspecified)	4.3	-0.02
COc1ccc(-c2csc(N3CCN(C(=O)c4ccco4)CC3)n2)cc1	0.1	-0.01
C/C(=N\NC(=O)COc1c(C)cccc1C)c1cccs1	0.06	-0.85
CN(C(=O)c1ccc(OC2CCN(C(=O)c3cccnc3)CC2)cc1)C1CCCCC1	0.51	1.39
COc1ccccc1OCC(=O)n1cc(C(=O)c2cc(Cl)cc(Cl)c2O)cn1	1.74	0.03
O=C(N/N=C1/C(=O)c2cccc3cccc1c23)c1ccc(Cl)cc1	10.1*	0.01*
O=C(CCN1CCc2ccccc2C1)Nc1ccccc1F	0.33	-1.43
CCSc1nc2ccccc2n1CCC(=O)O	0.87	-0.21
CC(C)C(OC(=O)C1=Cc2ccccc2OC1)C(=O)NC1CCCC1 (stereo unspecified)	0.05	-0.64
CN(C)S(=O)(=O)c1ccc2oc(SCC(=O)NCC(F)(F)F)nc2c1	0.37	1.03
Cc1cn(C(=O)C(C)N2C(=O)c3ccccc3C2=O)c(C)n1 (stereo unspecified)	1.15	-0.03
O=C(CNC1CCCCC1)Nc1ccc(Cl)cc1	1.78	-2.25
CCCC(=O)Nc1ccc(-c2ccc(NC(=O)CCC)cc2)cc1	1.86	-0.96
Cc1cc(N)ccc1-c1cc2ccccc2oc1=O	0.79	-0.04
CC(C)c1nc(Cl)c(C#N)c2c1COC(C)(C)C2	0.86	0.01
CCc1nc2ccccc2c(C(=O)OCC(=O)N2CC(C)OC(C)C2)c1C (stereo unspecified)	0.19	-3.03
CC(=O)c1ccc(N2Cc3ccccc3C2=NC(=O)c2cccs2)cc1	0.22	-1.2
Oc1c(Cl)cc(Cl)cc1/C=N/c1nccs1	9.07*	1.2*
Cc1cc2c(NCc3ccccc3)ncnc2s1	0.04	0.18
Cc1ccc(S(=O)(=O)N2CCN(C(=O)C(C)Cn3cncn3)CC2)cc1C (stereo unspecified)	0.58	0.09
Cc1ccc(-c2nc(-c3ccncc3)no2)c(C)c1	1.99	-0.82
O=C(Oc1ccc([N+](=O)[O-])cc1)c1ccc2ccccc2n1	0.01	0.05
O=C(NC1CCCc2ccccc21)C1CCN(S(=O)(=O)c2cccc3nsnc23)CC1 (stereo unspecified)	0.04	0.17
COc1cccc(C2=CC(=O)CC(C)(C)C2)n1	1	-0.23
O=C(N/N=C/c1ccoc1)c1ccc(Br)cc1	2.94	1.94
COCCNC(=O)c1ccc(C)c(S(=O)(=O)Nc2ccc(C)cc2)c1	0.05	-1.59
Nc1nc(OCC2CCCCC2)c2[nH]cnc2n1	0.79	0.33
The list goes on.
SMILES	KCNQ2 pot	KCNQ2 pot baseline
CC(C)C(=O)Nc1ccc(C(=O)N2CCN(C(=O)c3ccco3)CC2)cc1	0.64	0.73
CC1(C(=O)O)CCC(C(=O)Nc2ccc(OC(F)(F)Cl)cc2)C1(C)C (stereo unspecified)	0.45	-0.55
Cc1nc(SCC(=O)NCc2ccc(F)cc2)c2c(=O)n(C)c(=O)n(C)c2n1	0.22	0.75
O=C(NCCc1ccc(F)cc1)c1cc2ccccc2oc1=O	1.1	-0.17
Oc1ccc(C(=S)N2CCN(c3cccc(Cl)c3)CC2)cc1	1.44	-0.2
Cc1cc(C)n2nc(SCCOc3ccccc3F)nc2n1	1.46	-0.12
CC(C(=O)Nc1ccccc1Cl)N(c1ccccc1)S(C)(=O)=O (stereo unspecified)	0.32	0.75
O=C(O)CCc1ccc(-c2ccc(Cl)cc2)n1CC(=O)Nc1ccccc1	0.65	0.45
N=c1oc2ccc([N+](=O)[O-])cc2cc1C(=O)NCc1ccccc1	0.03	1.02
Cc1cccc(OCCCC(=O)Nc2nnc(C3CCCO3)s2)c1C (stereo unspecified)	0.21	1.86
Cc1cc(C)c(S(C)(=O)=O)c(=O)[nH]1	0.48	1.37
CC(=O)Nc1cc(C(=O)N(C)Cc2ccco2)ccc1Sc1ccc(Cl)cc1	1.01	-0.6
C/C(CCc1ccc2c(c1)OCO2)=N\N=C1\NC(=O)CC(C(=O)Nc2ccccc2)S1 (stereo unspecified)	0.25	-2.36
CC(C)(C)N(CC#CCC(O)(c1ccccc1)C1CCCC1)CCO (stereo unspecified)	1.34	1.43
Cc1ccc(C(=O)NC2(O)C(=O)c3ccccc3C2=O)cc1C	5.69*	-2.07*
Cc1ccc(NC(=O)CCC(=O)N2CCC(C)CC2)c([N+](=O)[O-])c1	0.5	1.73
CCn1c(COc2ccc(C)cc2)nnc1SCC(=O)NNC(=O)c1ccc(OC)cc1	2.77	3.35
CCCCC1=NN2C(=N)CC(=O)N=C2S1	0.42	-1.4
NS(=O)(=O)c1ccc(CCNC(=O)CN2CCC(Cc3ccccc3)CC2)cc1	0.06	0.16
CN(C)S(=O)(=O)c1ccc(N2CCCC2)c(C(=O)OCC(=O)NC2(C#N)CCCCC2)c1	0.56	1.21
CCOC(=O)C1=C(C)NC(=S)NC1c1ccc(-c2cccc(Cl)c2C)o1 (stereo unspecified)	4.77	-0.57
Cc1ccc(NC(=O)c2ccc3c(c2)[nH]c(=O)n3C(C)C)cc1	1.32	0.67
O=C(COc1cccc(OC(F)F)c1)Nc1ccc(SC(F)F)cc1	1.49	0.54
O=C(Cc1cccs1)Nc1ccc(F)cc1F	0.1	0.48
CC(C)(C)n1nc2c(c1NC(=O)COc1ccc3ccccc3c1)CS(=O)(=O)C2	0.86	0.91
CCN1CCN(S(=O)(=O)c2cccc([N+](=O)[O-])c2)CC1	0.76	-1.29
COc1ccc(CC(=O)Nc2nnc(C(C)(C)C)s2)cc1OC	0.45	-0.69
Cc1cc(C)nc(/N=C(\N)Nc2ccc(SC(F)F)cc2)n1	1.18	0.5
OCCN(CCO)CC(O)CN1c2ccccc2Sc2ccccc21 (stereo unspecified)	0.44	0.1
CCOC(=O)N1CCC(NC(=O)c2ccc3c(=O)n4c(nc3c2)CCCC4)CC1	0.3	-1.79
CCC(C)(C)NC(=O)C(c1ccccc1Cl)N(Cc1cccnc1)C(=O)CCC(=O)Nc1cc(C)on1 (stereo unspecified)	0.72	-1.26
CCC1=NN(C(=O)C(=O)Nc2ccc(OC)cc2)C(O)(C(F)(F)F)C1 (stereo unspecified)	0.01	0.61
CCOC(=O)C1=C(CC)Nc2ccccc2N=C1NC(=O)c1ccc(S(=O)(=O)N2CCOCC2)cc1	0.21	-0.93
COc1ccccc1CNC(=O)C1CCCC1	1.82	0.07
Cc1n[nH]c(=O)c2c(NC(=O)CSc3nn(-c4ccccc4)c(=S)s3)oc(C)c12	3.11	0.39
CC(=O)CCc1ccc(OCC(O)CNCCOc2ccc(C)cc2)cc1 (stereo unspecified)	1.21	0.82
COc1ccc(C2CC(=O)C=C(NC3CCCC3)C2)cc1 (stereo unspecified)	0.39	-0.03
Cc1cc(N2CCN(C)CC2)nc2ccc(NC(=S)NCc3cccs3)cc12	1.97	0.08

Random excerpt: 5 compounds from above
SMILES	KCNQ2 pot	KCNQ2 pot baseline
CCOC(=O)C1=C(C)NC(=S)NC1c1ccc(-c2cccc(Cl)c2C)o1 (stereo unspecified)	4.77	-0.57
CCC(C)(C)NC(=O)C(c1ccccc1Cl)N(Cc1cccnc1)C(=O)CCC(=O)Nc1cc(C)on1 (stereo unspecified)	0.72	-1.26
CCN1CCN(S(=O)(=O)c2cccc([N+](=O)[O-])c2)CC1	0.76	-1.29
COc1ccccc1CNC(=O)C1CCCC1	1.82	0.07
O=C(Cc1cccs1)Nc1ccc(F)cc1F	0.1	0.48

An excerpt (hit frequency here may not be typical).
